High-throughput results from PubChem.
Cruzain Triton: cruzain (T. cruzi) inhibition with detergent; Potency, µM, inactives show max response, negative = inhibition, actives largely listed as inhibitors; purified cruzain, Z-FR-AMC fluorescence, 0.01% Triton; AID 1478; 200,000 compounds, 0.43% hits; active means well fitted curve in the direction sought with a large enough effect; inconclusive means small, poorly fitted or top-dose-only effect, or another doubt; inactive means no such curve, though single readings can be large; an effect the other way counts as inactive or inconclusive;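 further: plate controls were neutral wells for no effect and buffer without enzyme for full effect; nearly all actives have a fitted effect of over 40% in size; top concentration of the series not given in the record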
Target sequence (P25779 123-467 limits assumed): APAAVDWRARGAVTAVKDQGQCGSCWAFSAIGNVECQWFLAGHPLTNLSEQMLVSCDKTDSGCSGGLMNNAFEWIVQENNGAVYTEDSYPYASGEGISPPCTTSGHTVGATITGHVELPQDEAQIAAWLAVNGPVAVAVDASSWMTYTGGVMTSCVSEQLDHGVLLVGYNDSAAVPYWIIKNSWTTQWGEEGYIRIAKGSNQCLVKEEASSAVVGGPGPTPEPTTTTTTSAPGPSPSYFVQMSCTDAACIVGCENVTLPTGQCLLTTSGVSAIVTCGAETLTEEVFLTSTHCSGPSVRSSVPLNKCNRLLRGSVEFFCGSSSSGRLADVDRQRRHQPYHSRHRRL
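Cysteine protease activity tested under reducing, mildly acidic conditions (100 mM sodium acetate pH 5.5, 5 mM DTT) plus 0.01% Triton X-100. Cruzain 1.5 nM; substrate Z-FR-AMC 2 uM; 15 min compound preincubation at room temperature.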
RE007 growth inh: less growth of the S. pombe RE007 Vpr strain; S. pombe RE007 Vpr strain, BacTiter-Glo ATP luminescence, 24 h; control for the full effect not named in the record; Potency, µM (series often up to 92.2 µM), for inactives: at the highest dose activity change, negative = less growth; 360,000 compounds, 0.21% hits; active = well fitted falling curve with a large enough effect; inconclusive = small, poorly fitted or top-dose-only effect; inactive = no such curve, though single readings can be large or run the other way;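 further: on the % scale 0 is the no-effect control and ±100 the full control effect; nearly all actives have a fitted effect of over 50% in size; the assay follows cell death caused by Vpr and the record does not say whether a fall means rescue or toxicity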
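Fission yeast strain RE007, carrying one chromosomally integrated HIV-1 vpr copy, was seeded at OD 0.01 in PMG+AL medium with 23 nL pinned compound. After 24 h at 30 °C and 99% humidity, viability was read by BacTiter-Glo luminescence.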
Marburg entry inh: Marburg virus entry inhibition; Marburg virus pseudotyped entry inhibition, cell reporter; control for the full effect not named in the record; about a third of the inactives were read at about 46 µM; Potency, µM (doses to about 37.8 µM), for the others: at the highest dose activity change, negative = inhibition, hits mostly inhibitors; 300,000 compounds, 1.8% hits; AID 540276; active = well fitted inhibition curve with a large enough effect; inconclusive = small, poorly fitted or top-dose-only effect, or effect the other way; inactive = flat fitted curve, though single readings scatter; tested in HEK293 cells; about a fifth of its hits are not listed in these tables; further: on the % scale 0 is the no-effect control and ±100 the full control effect; luciferase read-out
Cruzain inh noDet: cruzain (T. cruzi) inhibition without detergent; Potency, µM, for the others: max response, negative = inhibition, most hits filed as inhibitors; P25779; purified cruzain, Z-FR-AMC fluorescence, no detergent; 200,000 compounds, 2.3% hits; AID 1476; active means well fitted curve in the direction sought with a large enough effect; inconclusive means small, poorly fitted or top-dose-only effect, or another doubt; inactive means no such curve, though single readings can be large; an effect the other way counts as inactive or inconclusive;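 further: plate controls were enzyme without inhibitor for no effect and buffer without enzyme for full effect; nearly all actives have a fitted effect of over 40% in size; top concentration of the series not given in the record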
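Purified cruzain at 1.5 nM, pre-incubated 15 min with compound at room temperature in 100 mM sodium acetate pH 5.5, 5 mM DTT, 0.00005% Triton X-100. Reaction started with 2 uM Z-FR-AMC; AMC fluorescence increase over 60 s gives rate.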
NS1 inh: influenza NS1 inhibition. S. cerevisiae slowed by influenza A NS1, growth recovery by OD600. Potency, µM (top dose mostly 46.1 µM), for the others: at the top dose activity, positive = more growth. 270,000 compounds, 0.4% hits. AID 2326; further: actives are rising curves; nearly all actives have a fitted effect of over 50% in size
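Compounds were scored for reversing the slow growth caused by influenza A NS1 in S. cerevisiae, measured by optical density at 600 nm. Assay medium contained 2% galactose at pH 6.0; NS1-free yeast of the same strain were the positive control.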
SARS PLP yeast: blocks SARS-CoV papain-like protease in a yeast assay. Potency, µM (titrated, usually from 32.9 µM), for inactives: at the top dose activity, positive = growth rescue. S. cerevisiae expressing SARS-CoV PLpro, growth rescue; control for the full effect not named in the record. 330,000 compounds, 0.19% hits. AID 485353; further: 0% is about no effect; nearly all actives have a fitted effect of over 55% in size; growth read by luminescence after 48 h
LASV entry inh: Lassa virus entry inhibition; AID 540256; Potency, µM (doses to about 37.9 µM), for inactives: top-dose activity change, negative = inhibition, actives largely listed as inhibitors; Lassa virus pseudotype entry inhibition, cell reporter; control for the full effect not named in the record; 300,000 compounds, 1.2% hits; active means well fitted inhibition curve with a large enough effect; inconclusive means small, poorly fitted or top-dose-only effect, or effect the other way; inactive means flat fitted curve, though single readings scatter; tested in HEK293 cells; further: on the % scale 0 is the no-effect control and ±100 the full control effect; nearly all actives have a fitted effect of over 50% in size; luciferase read-out
StopGo reporter: lowers the luciferase signal of an FMDV 2A StopGo reporter. human cells with a luciferase reporter of 2A StopGo recoding; control for the full effect not named in the record. Potency, µM (series often up to 57.9 µM), for the others: at the highest dose signal change, negative = less light. 410,000 compounds, 1.2% hits. AID 1159524; active = well fitted falling curve with a large enough effect; inconclusive = small, poorly fitted or top-dose-only effect; inactive = no such curve, though single readings can be large or run the other way; tested in HEK293T cells; further: on the % scale 0 is the no-effect control and ±100 the full control effect; nearly all actives have a fitted effect of over 45% in size; luciferase light after 4 h
* hit, by the source's call; ? = inconclusive; / = no result given; & = joins results of further samples; [ ] = remark or other dose. Unless noted, the call rests on the fitted dose curve; in most records, active means well fitted rising curve with a large enough effect; inconclusive means small, poorly fitted or top-dose-only effect; inactive means no such curve, though single readings can be large or run the other way. Potency means the concentration at half of the fitted maximal effect.

smiles | Cruzain Triton | RE007 growth inh | Marburg entry inh | Cruzain inh noDet | NS1 inh | SARS PLP yeast | LASV entry inh | StopGo reporter
CC(=O)Nc1ccc(NC(=O)COc2c(C)cc(Br)cc2C)cc1 | / | -3% | 2%[46.1 µM] | / | -1% | 1% | 8% | 3%
CC(=Nc1ccc2c(c1)CCC2)c1c(O)n(-c2ccccc2)c(=O)[nH]c1=O | / | 17% | 8%[46.1 µM] | / | 3% | -2% | ? | -4%
Cc1cc(Oc2ccc(Cl)cc2)nc(SCC(=O)c2ccccc2)n1 | -7.5% | 50% | -23% | 1% | -4% | -12% | -11% | -30%
COc1cc(CNC(=O)c2cccc(COc3ccc(Cl)cc3)c2)cc(OC)c1 | -4.0% | 3% | ? | -3% | 16% | 2% | ? | -81%
Cc1c(C(O)CN2CCC(C(N)=O)CC2)c2ccccc2n1C (configuration not stated) | -0.4% | 4% | -4% | -5% | 8% | -3% | 18% | -18%
Cc1ccc(Sc2c(C)nn(-c3ccccc3)c2OC(=O)CC(C)C)cc1 | -2.0% | / | 1%[46.1 µM] | -10% | / | / | 2%[46.1 µM] | -27%
Cc1ccc(NC(=O)CCC(=O)N/N=C/c2ccco2)c(C)c1 | 1.8% | 13% | ? | 2% | 3% | 2% | -1% | 2%
Cc1cc(S(=O)(=O)Nc2c(NC3CCCCC3)c3ccccc3oc2=O)ccc1F | / | 1% | / | / | 9% | -12% | / | -6%
CC(=O)c1ccc(N2CCN(C(=O)C3CCN(S(=O)(=O)c4ccc5c(c4)CC(C)N5C(C)=O)CC3)CC2)cc1 (configuration not stated) | / | 3% | / | / | -8% | 0% | / | -29%
Cc1ccc(C(=O)COC(=O)c2cc(-c3ccc(Cl)cc3)nc3ccccc23)cc1 | -0.9% | / | / | -1% | / | / | 13%[46.1 µM] | -24%
Cc1ccc(C(C)C)c(OCC(=O)NC(=S)Nc2ccccc2N2CCOCC2)c1 | / | -21% | -14% | / | ? | -4% | -26% | -19%
COc1ccc(C(=O)N/N=C(\C)CC(=O)Nc2ccc3c(c2)OCCO3)c(OC)c1 | / | 12% | 8%[46.1 µM] | / | -1% | 0% | 13%[46.1 µM] | -8%
COc1ccc(-n2c3c(c(=O)[nH]c2=O)C(C(F)(F)F)(C(F)(F)F)N=C(CC(C)C)N3)cc1 | -4.4% | -6% | -3% | 5% | 23% | 1% | -2% | -10%
COc1ccc(/C=C2/SC(=O)N(CCC(=O)Nc3ccccc3C(=O)O)C2=S)cc1 | / | 5% | 24% | / | 15% | 1% | -21% | -1%
Cc1ccc(C(=O)N2CCN(S(=O)(=O)N3CCCCCC3)CC2)cc1 | / | 32% | 12%[46.1 µM] | / | -21% | 2% | -2%[46.1 µM] | -3%
CCC(C(=O)NC1CCCC1)N(C(=O)Cn1nnc(-c2ccc(C)o2)n1)c1cccc(O)c1 (configuration not stated) | / | 1% | ? | / | 13% | -3% | / | -19%
CC1CCCN(S(=O)(=O)c2ccc(C(=O)Nc3ccccc3-c3nc4ccccc4[nH]3)cc2)C1 (configuration not stated) | -3.9% | 9% | ? | ? | -9% | -14% | 6% | -9%
COc1ccc(N2CCN(c3ccc(C(N)=O)cc3[N+](=O)[O-])CC2)cc1 | / | 6% | -31%[46.1 µM] | / | / | -2% | -14%[46.1 µM] | -13%
NC(=O)c1sc2nc3c(c(-c4cccs4)c2c1N)CCCC3 | -7.7% | / | 9%&9% | -18% | -7% | 6% | -2% | /
Cc1ccc(C(=O)Cn2cccn2)cc1 | / | -12% | ? | / | / | -2% | 20% | 16%
Cc1c(C(=O)Nc2c3c(nn2C(C)(C)C)CS(=O)(=O)C3)cccc1[N+](=O)[O-] | / | 6% | / | / | -3% | ? | / | -26%
CC(=O)c1[nH]c(C)c(C(C)=O)c1C | -0.8% | 14% | 26%[46.1 µM] | 5% | -8% | -6% | 4% | 15%
O=C(c1cnn2c1NC(c1ccc(Br)cc1)CC2C(F)(F)F)N1CCN(C23CC4CC(CC(C4)C2)C3)CC1 (configuration not stated) | -5.1% | 8% | 16µM* | 1% | 9% | -38% | 2% | ?
O=C(O)c1cccc(NS(=O)(=O)c2cccc3cccnc23)c1 | -1.9% | -5% | / | -14% | ? | 4% | / | 0%
CCOC(=O)c1sc(NC(=O)CSc2nc3cccnc3n2C)nc1C | / | 1% | 13%[46.1 µM] | / | -3% | 1% | 0%[46.1 µM] | -7%

Entries of single compounds as entered above. Order of screens: Cruzain Triton | RE007 growth inh | Marburg entry inh | Cruzain inh noDet | NS1 inh | SARS PLP yeast | LASV entry inh | StopGo reporter
Cc1cc(S(=O)(=O)Nc2c(NC3CCCCC3)c3ccccc3oc2=O)ccc1F is entered as / | 1% | / | / | 9% | -12% | / | -6%
Cc1ccc(NC(=O)CCC(=O)N/N=C/c2ccco2)c(C)c1 is entered as 1.8% | 13% | ? | 2% | 3% | 2% | -1% | 2%
Cc1c(C(O)CN2CCC(C(N)=O)CC2)c2ccccc2n1C (configuration not stated) is entered as -0.4% | 4% | -4% | -5% | 8% | -3% | 18% | -18%

Continued:
smiles | Cruzain Triton | RE007 growth inh | Marburg entry inh | Cruzain inh noDet | NS1 inh | SARS PLP yeast | LASV entry inh | StopGo reporter
CN(c1ccc(C(=O)N2CCN(Cc3ccc4c(c3)OCO4)CC2)cc1)S(C)(=O)=O | / | -12% | -2%[46.1 µM] | / | -1% | 0% | 6% | -25%
CC1CC(C)(C)n2c(O)c(N=NC(N)=S)c3cccc1c32 (configuration not stated) | / | -2% | / | / | ? | 1% | / | ?
Cc1ccc(S(=O)(=O)NCC(=O)OCC(=O)N(Cc2ccccc2)C(C)(C)C)cc1 | -3.4% | -7% | 0% | 10% | -17% | -3% | 5% | -9%
COc1ccc2c(c1OC)C(=O)OC2Nc1nc2ccccc2s1 (configuration not stated) | / | -1% | -1% | / | -4% | -1% | 14% | 15%
Cc1ccc([N+](=O)[O-])c(NC(=O)COC(=O)C2CC3CCCC(C2)C3=O)c1C (configuration not stated) | / | 7% | / | / | 3% | -2% | / | -10%
Cc1cc(C)nc(/N=C(\N)Nc2ccc(S(=O)(=O)O)cc2)n1 | / | 8% | 9%[46.1 µM] | / | / | 0% | 21%[46.1 µM] | -4%
COc1ccc2c(OC)cc(=O)n(C)c2c1 | -2.2% | -11% | 12% | 0% | -2% | -8% | -5% | -6%
O=[N+]([O-])c1ccc(NC(=S)N2CCc3ccccc32)cc1 | / | -6% | -19%[46.1 µM] | / | -43% | -5% | ? | -22%
C/C(Cn1cnc([N+](=O)[O-])n1)=N\NC(=O)c1ccccc1O | / | -5% | 1%[46.1 µM] | / | 5% | 2% | -3% | 3%
CC(=O)Nc1nc(NC(=O)/C=C/c2ccccc2)n(-c2ccccc2)n1 | -5.1% | 5% | ? | 14% | 8% | -9% | ? | -24%
COc1ccc(CCNC(=O)COC(=O)/C=C/c2ccc(OC)cc2OC)cc1 | / | -17% | 19% | / | / | -20% | -17%[46.1 µM] | -23%
Cc1ccc(-c2nnc(-c3cccc(NC(=O)c4cccs4)c3)o2)cc1 | 2.4% | 0% | -12% | 20% | 19% | -6% | -28% | 4%
CC(C)(C)c1cc(C(=O)O)nn1-c1ccccc1 | 0.8% | 2% | -20%[46.1 µM] | -11% | ? | 2% | 8% | -24%
Cc1ccc(OCCC(=O)OCC(=O)N2CCN(S(=O)(=O)c3ccc(C)cc3)CC2)cc1 | / | 5% | 0% | / | / | 3% | 17%[46.1 µM] | ?
CCc1nc(SCC(=O)O)c(C#N)cc1C | 4.3% | -2% | -1% | -7% | 12% | -5% | 16% | /
Cc1cccc(NC(=O)CSc2nc(=O)n3ccccc3n2)c1C | / | 5% | -1%[46.1 µM] | / | / | -1% | 6% | -15%
CC(OC(=O)/C=C/c1ccccc1Cl)C(=O)NC1CCCCC1C (configuration not stated) | / | 14% | 16% | / | / | / | 10% | -7%
Cc1oc2c(c1C(=O)Nc1ccc(F)c(F)c1)C1=NCCN1C=N2 | -0.2% | / | / | 9% | / | / | 1%[46.1 µM] | -15%
CCc1ccc(NC(=S)N2CCC(NC(=O)c3ccccc3OC)CC2)cc1 | / | -16% | ? | / | 0% | 3% | -19% | 18%
Cc1ccc(NC(=O)CNC(=O)Cn2c(C)cc3ccccc3c2=O)cc1F | -1.4% | / | -1%[46.1 µM] | -2% | / | / | 26%[46.1 µM] | -20%
COc1cc(S(=O)(=O)NCc2cccnc2)c(OC)cc1Br | -1.4% | 6% | 22% | 6% | 3% | 3% | 0% | 67%[activator]
CCOC(=O)C(CSCC(=O)c1ccc(Cl)cc1Cl)NC(=O)OC(C)(C)C (configuration not stated) | -9.7% | 17% | 5% | -6% | -21% | -28% | ? | 0%
CCCSc1nnc(CSc2nc(C)cc(C)n2)n1C | / | 5% | 1%[46.1 µM] | / | / | 4% | / | 2%
CC(C)[C@H](NC(=O)NCc1ccc(F)cc1)C(=O)O | / | 1% | / | / | -1% | -1% | / | -5%
CC(=O)Nc1cccc(C(=O)NC(C)c2ccc(-n3ccnc3)cc2)c1 (configuration not stated) | / | -10% | -6%[46.1 µM] | / | 9% | 0% | ? | 2%

Of the compounds above, 2 have a CF3 group.
smiles | Cruzain Triton | RE007 growth inh | Marburg entry inh | Cruzain inh noDet | NS1 inh | SARS PLP yeast | LASV entry inh | StopGo reporter
COc1ccc(-n2c3c(c(=O)[nH]c2=O)C(C(F)(F)F)(C(F)(F)F)N=C(CC(C)C)N3)cc1 | -4.4% | -6% | -3% | 5% | 23% | 1% | -2% | -10%
O=C(c1cnn2c1NC(c1ccc(Br)cc1)CC2C(F)(F)F)N1CCN(C23CC4CC(CC(C4)C2)C3)CC1 (configuration not stated) | -5.1% | 8% | 16µM* | 1% | 9% | -38% | 2% | ?
